Sfp inh – Sfp phosphopantetheinyl transferase inhibition. AID 1490. Potency, µM, without a hit: max response, negative = inhibition, most hits filed as inhibitors. Biochemical Sfp PPTase activity, qHTS. 310,000 tested, 3.5% active. Q9F4F7; active = well fitted inhibition curve with a large enough effect; inconclusive = small, poorly fitted or top-dose-only effect, or another doubt; inactive = no such curve, though single readings can be large or run the other way;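 also: the enzyme is Sfp with the accession as filed and its product quenches rhodamine fluorescence; potency is read from the fitted curve at half-maximal effect; 0% = enzyme reaction without inhibitor and -100% = no enzyme wells; top concentration of the series not given in the record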
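After 15 min at room temperature with compound, 15 nM Sfp received 5 uM rhodamine-CoA plus 12.5 uM BHQ-2-ybbR (50 mM Hepes pH 7.6, 10 mM MgCl2). Rate came from the fluorescence difference over 30 min, ex 525/em 598 nm.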
gsp antag – gsp mutant antagonism | Potency, µM (titrated, usually from 76.9 µM), inactives show at the top dose activity change, negative = inhibition, hits mostly inhibitors | gsp-mutant cells, cAMP HTRF, 30 min; control for the full effect not named in the record | 340,000 tested, 0.4% active | AID 624288; active = falling curve of any shape with a large fitted effect; inconclusive = falling curve, mostly with a smaller effect; inactive = flat or rising curve; cell line not stated here;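 also: intracellular cAMP measured with PDE inhibitor Ro 20-1724 present during compound exposure; potency is read from the fitted curve at half-maximal effect; % is scaled to controls: 0 for no effect and ±100 for the full control effect; nearly all actives have a fitted effect of over 65% in size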
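G418-selected cells were plated in DMEM/10% FBS for 16-24 h at 37C, then treated with compounds plus the PDE inhibitor […] (300 uM solution added) for 30 min at 37C. Intracellular cAMP was measured by HTRF after 30 min lysis at room temperature.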
ClpP mod – qHTS Assay for Activators of ClpP; ATP-dependent Clp protease proteolytic subunit (Bacillus subtilis (strain 168)), P80244; purified B. subtilis ClpP, FRET peptide cleavage, 20 min; Potency, µM (top dose mostly 57.5 µM), for the others: at the highest dose activity change, negative = active; 340,000 tested, 1.9% active; active = well fitted falling curve with a large enough effect; inconclusive = small, poorly fitted or top-dose-only effect; inactive = no such curve, though single readings can be large or run the other way; also: potency is read from the fitted curve at half-maximal effect; the source files actives as falling curves though it sought activators and does not explain the sign; nearly all actives have a fitted effect of over 65% in size; many hits overshoot -100%
Target sequence (P80244 whole entry, looked up): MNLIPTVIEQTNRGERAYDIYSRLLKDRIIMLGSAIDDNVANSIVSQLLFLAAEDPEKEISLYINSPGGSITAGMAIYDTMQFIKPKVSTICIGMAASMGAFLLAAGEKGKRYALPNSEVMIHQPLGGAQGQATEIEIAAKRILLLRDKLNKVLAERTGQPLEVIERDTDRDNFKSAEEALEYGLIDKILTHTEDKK
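ClpP 10 microg/mL final, pH 8 Tris/KCl buffer with BSA, glycerol, Tween-20; compound pinned in; FRET-FV substrate; RT 20 min; Ex320/Em430; ΔFRET vs ADEP 5.8 microM, DMSO, no enzyme.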
Menin-MLL FL inh – inhibitors of human menin-MLL interaction, wild-type MLL peptide. FP activity change, % at 61.4 µM. 290,000 tested, under 10 active. Fluorescence polarization, fluorescein-MLL peptide displacement from menin. AID 1766; inconclusive = falling polarisation curve, or a change in total fluorescence; inactive = total fluorescence flat and polarisation flat or rising; no compound was filed as active; the % refers to the polarisation; negative = inhibition;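 also: % of control where 0% means no effect; inhibitors lower the polarisation; unlabelled MLL peptide was the positive control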
gsp ag – activates gsp, the McCune-Albright syndrome mutation; gsp mutant cells, cAMP HTRF, 30 min; control for the full effect not named in the record; Potency, µM (doses to about 76.9 µM), for the others: top-dose activation (cAMP increase), most hits filed as activators; 340,000 tested, 0.13% active; active = well fitted activation curve with a large enough effect; inconclusive = small, poorly fitted or top-dose-only effect, or another doubt; inactive = no such curve, though single readings can be large or run the other way; cell line not stated here;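 also: phosphodiesterase inhibitor Ro 20-1724 added with compounds to block cAMP breakdown; potency is read from the fitted curve at half-maximal effect; nearly all actives have a fitted effect of over 60% in size; about a fifth of the inactives were tested at one dose only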
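Cells in DMEM/10% FBS with G418 were pretreated with compounds in DMSO plus […] (300 uM stock) for 30 min at 37C. cAMP was measured by HTRF (cAMP-d2 plus anti-cAMP antibody-K) after 30 min at room temperature.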
TRPV1 potentiator – enhances activation of the human vanilloid receptor TRPV1; Q8NER1; potentiation, % at 8.33 µM; AID 540277; 320,000 tested, 0.02% active; TRPV1-expressing cells, Fluo-8 calcium influx, capsaicin EC20 potentiation; host cell line not named in the record; control for the full effect not named in the record; active means potentiation above 80%; inconclusive means 30% to 80%; inactive means below 30%; also: 0% is about no effect
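Fluo-8 calcium influx in TRPV1-expressing cells, kinetic read (ex 480/em 520 nm). Compound added and read 3 min for agonist activity, followed by capsaicin at EC20 final and 2 min further read for enhancement.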
D2 potentiator – human D2 receptor positive allosteric modulation; DiscoveRx D2 beta-arrestin cells, luminescence, 90 min; 100% = 57 uM dopamine signal; potentiation, % (test concentration not listed); 360,000 tested, 0.23% active; active = potentiation of 50% or more; inconclusive = 30% to 50%; inactive = 30% or less;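 also: compound concentration not given in the record; tested on top of an EC20 dose of dopamine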
Target sequence (P14416 whole entry, looked up): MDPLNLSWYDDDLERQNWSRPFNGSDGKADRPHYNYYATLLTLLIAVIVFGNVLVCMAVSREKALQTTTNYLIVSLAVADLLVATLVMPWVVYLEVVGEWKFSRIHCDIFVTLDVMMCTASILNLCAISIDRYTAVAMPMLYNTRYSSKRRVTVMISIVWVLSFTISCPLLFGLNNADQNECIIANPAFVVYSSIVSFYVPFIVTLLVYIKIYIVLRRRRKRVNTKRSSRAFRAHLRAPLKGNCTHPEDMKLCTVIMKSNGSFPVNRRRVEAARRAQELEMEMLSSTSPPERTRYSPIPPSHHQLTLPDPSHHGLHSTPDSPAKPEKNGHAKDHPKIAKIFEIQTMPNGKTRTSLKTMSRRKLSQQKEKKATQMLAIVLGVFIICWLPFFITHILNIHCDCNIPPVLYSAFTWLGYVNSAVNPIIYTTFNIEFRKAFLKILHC
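PathHunter beta-arrestin assay in DiscoveRx D2 cells. Compounds were added with an EC20 of dopamine (50 nM final) for 90 min at 37 deg C. Luminescence was read 1 h after detection reagent, with 57 uM dopamine as the EC100 control.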
Numbers without * were called inactive; [ ] = dose if it differs, or a comment.

S=c1[nH]nc(C2COc3ccccc3O2)o1 (stereo not given) was read as Sfp inh -4%, gsp antag -21%, ClpP mod -0.3%, Menin-MLL FL inh -5.0, gsp ag -1%, TRPV1 potentiator -4 and D2 potentiator -20.
`SC(COCc1ccccc1)CN1CCN(Cc2ccc3c(c2)OCO3)CC1` (stereo not given) gave Sfp inh inconclusive, gsp antag 12%, Menin-MLL FL inh 3.2, gsp ag -7%, TRPV1 potentiator 24 and D2 potentiator -17.
For Nc1nc(N)nc(-c2cc(C(F)(F)F)ccc2Cl)n1 the results were gsp antag 8%, ClpP mod -3.0%, gsp ag 7%, TRPV1 potentiator -30 and D2 potentiator 0.
Screening CN(C)c1ccc(C2/C(=C(/O)c3ccccc3)C(=O)C(=O)N2CCCC(=O)O)cc1 (stereo not given) returned Sfp inh 14%, gsp antag 3%, Menin-MLL FL inh 3.4, gsp ag -8%[15.4 µM], TRPV1 potentiator -9 and D2 potentiator -5.
Screening COc1ccc(C2c3ccc4ccccc4c3Oc3ncn(CCO)c(=N)c32)cc1OC (stereo not given) returned Sfp inh -6%, gsp antag 0%, ClpP mod -2.0%, Menin-MLL FL inh -3.2, gsp ag -17%, TRPV1 potentiator -23 and D2 potentiator 4.
`BrC(=C\c1ccccc1)/C=N/Nc1nc2ccccc2[nH]1` gave Sfp inh -65%, gsp antag -8%, ClpP mod -18%, Menin-MLL FL inh 11, gsp ag -13%, TRPV1 potentiator -16 and D2 potentiator -20.
`O=C(Nc1ccc(S(=O)(=O)N2CCCC2)cc1)c1ccc(F)cc1` gave gsp antag 4%, gsp ag -5%[15.4 µM] and D2 potentiator -5.
For Cc1cc(N2C(=O)C(O)=C(C(=O)c3ccco3)C2c2ccc([N+](=O)[O-])cc2)no1 (stereo not given) the results were Sfp inh 1%, gsp antag 2%, ClpP mod -1.2%, gsp ag inconclusive, TRPV1 potentiator -1 and D2 potentiator -17.
Screening OC(CNCc1cccnc1)COc1ccc2ccccc2c1 (stereo not given) returned Sfp inh 16%, gsp antag 16%, Menin-MLL FL inh 1.3, gsp ag -40%[inhibitor], TRPV1 potentiator 8 and D2 potentiator -5.
CC(C)C[C@@]12C(=O)N(c3cccc(F)c3)C(=O)N1[C@H](c1ccc(F)cc1)[C@@H]1C(=O)N(C3CCCCC3)C(=O)[C@@H]12 was read as gsp antag -3%, ClpP mod -0.3%, gsp ag 10%, TRPV1 potentiator 14 and D2 potentiator -17.
For Cc1[nH]n(-c2ccccc2)c(=O)c1C=Nc1cnc2ccccc2c1 the results were Sfp inh 8%, gsp antag -3%, ClpP mod 70%, Menin-MLL FL inh -2.1, gsp ag 3%, TRPV1 potentiator -5 and D2 potentiator 1.
`Cc1ccc2cc(CN(C(=O)c3cccnc3)C(C)C)c(=O)[nH]c2c1` gave Sfp inh -4%, gsp antag -1%, ClpP mod inconclusive, Menin-MLL FL inh 3.2, gsp ag 4%, TRPV1 potentiator 2 and D2 potentiator -2.

The closing 4 compounds of the section before are carried over, then new ones follow:
Screening OC(CNCc1cccnc1)COc1ccc2ccccc2c1 (stereo not given) returned Sfp inh 16%, gsp antag 16%, Menin-MLL FL inh 1.3, gsp ag -40%[inhibitor], TRPV1 potentiator 8 and D2 potentiator -5.
CC(C)C[C@@]12C(=O)N(c3cccc(F)c3)C(=O)N1[C@H](c1ccc(F)cc1)[C@@H]1C(=O)N(C3CCCCC3)C(=O)[C@@H]12 was read as gsp antag -3%, ClpP mod -0.3%, gsp ag 10%, TRPV1 potentiator 14 and D2 potentiator -17.
For Cc1[nH]n(-c2ccccc2)c(=O)c1C=Nc1cnc2ccccc2c1 the results were Sfp inh 8%, gsp antag -3%, ClpP mod 70%, Menin-MLL FL inh -2.1, gsp ag 3%, TRPV1 potentiator -5 and D2 potentiator 1.
`Cc1ccc2cc(CN(C(=O)c3cccnc3)C(C)C)c(=O)[nH]c2c1` gave Sfp inh -4%, gsp antag -1%, ClpP mod inconclusive, Menin-MLL FL inh 3.2, gsp ag 4%, TRPV1 potentiator 2 and D2 potentiator -2.
Screening CC1(C)Cc2c(ccc3ccccc23)C(c2cc3ccccc3oc2=O)=N1 returned Sfp inh -3%, gsp antag 1%, ClpP mod -3.4%, Menin-MLL FL inh 5.6, gsp ag -42%, TRPV1 potentiator -24 and D2 potentiator -7.
For COc1cc(NC(=O)NC2Cc3ccccc3C2)cc(OC)c1 the results were Sfp inh 22%, gsp antag -2%, ClpP mod -1.9%, Menin-MLL FL inh -1.1, gsp ag -7%, TRPV1 potentiator 6 and D2 potentiator -6.
Screening Cc1ccc(Cl)cc1NC(=S)N1CCCCCC1 returned Sfp inh 9%, gsp antag -6%, ClpP mod 1.6%, gsp ag -40%, TRPV1 potentiator 3 and D2 potentiator -10.
`Cc1cc(C(=O)OCC(=O)Nc2ccccc2)c(C)o1` gave Sfp inh 19%, gsp antag -2%, Menin-MLL FL inh -3.0, gsp ag inconclusive, TRPV1 potentiator 21 and D2 potentiator 0.
For COCCN(CCOC)C(=S)Nc1ccccc1 the results were Sfp inh -12%, gsp antag 3%, Menin-MLL FL inh 1.1, gsp ag 0%, TRPV1 potentiator -6 and D2 potentiator 12.
CC1(C)C(=O)OC(c2cccn2-c2ccc([N+](=O)[O-])cc2)C2(CCCCC2)C1=O (stereo not given) was read as Sfp inh 1%, gsp antag 5%, ClpP mod 1.2%, Menin-MLL FL inh 2.1, gsp ag -30%, TRPV1 potentiator -25 and D2 potentiator -17.
`CN(C(=S)NCCN1CCOCC1)C(c1ccccc1)c1ccccc1` gave Sfp inh -25%, gsp antag 4%, ClpP mod -1.8%, Menin-MLL FL inh 0.0, gsp ag -20%, TRPV1 potentiator -18 and D2 potentiator -7.
Screening CC(=Nc1ccc(C)cc1C)c1sc2ccccc2c1O returned Sfp inh -6%, gsp antag inconclusive, ClpP mod 1.9%, Menin-MLL FL inh inconclusive, gsp ag -18%, TRPV1 potentiator 8 and D2 potentiator 9.
Screening CC12C(=O)N(c3nccs3)C(=O)C1C1C=CC2C1 (stereo not given) returned Sfp inh 9%, gsp antag 14%, ClpP mod 2.2%, Menin-MLL FL inh 3.6, gsp ag 0%, TRPV1 potentiator 17 and D2 potentiator -17.
CC(C)(C)n1ncc2c(=O)n(CC(=O)NCc3ccc(F)cc3)cnc21 was read as Sfp inh 6%, gsp antag 17%, ClpP mod -1.0%, Menin-MLL FL inh 0.3, gsp ag -12%, TRPV1 potentiator -6 and D2 potentiator -5.
Screening CC(C)Oc1ccccc1C1CC(=O)Nc2cc3c(cc21)OCO3 (stereo not given) returned Sfp inh 3%, gsp antag 14%, ClpP mod -1.9%, Menin-MLL FL inh -1.1, gsp ag 33%, TRPV1 potentiator -8 and D2 potentiator 11.
`O=C(NNC(=O)c1ccco1)c1csc(N2CCOCC2)n1` gave gsp antag 19%, ClpP mod 1.4%, gsp ag -4%[15.4 µM], TRPV1 potentiator 5 and D2 potentiator 18.
For O=C(Nc1ccc2c(c1)OCO2)C1CC(c2ccc(Cl)cc2)=NO1 (stereo not given) the results were Sfp inh -7%, gsp antag 3%, ClpP mod 2.0%, Menin-MLL FL inh 2.8, gsp ag -9%, TRPV1 potentiator -7 and D2 potentiator -16.
CCCc1cc(-n2ccnc2C)n2c(nc3ccccc32)c1C#N was read as gsp antag -2%, gsp ag -5%[15.4 µM] and D2 potentiator 1.
For CNC(=O)C1CCN(S(=O)(=O)c2c(C)noc2/C=C/c2ccccc2F)CC1 the results were Sfp inh 7%, gsp antag 14%, ClpP mod 4.7%, Menin-MLL FL inh -0.3, gsp ag 30%, TRPV1 potentiator -18 and D2 potentiator -5.
For Cc1onc(-c2ccccc2Cl)c1C(=O)Nc1ccc(Br)cc1 the results were Sfp inh -5%, gsp antag -15%, Menin-MLL FL inh 6.3, gsp ag -13%, TRPV1 potentiator 16 and D2 potentiator -5.
Screening O=C(NC1CC2CCCC(C1)N2CC(=O)N1CCCc2ccccc21)C1CCCCC1 (stereo not given) returned Sfp inh -4%, gsp antag 9%, ClpP mod -4.2%, Menin-MLL FL inh 1.2, gsp ag -4%, TRPV1 potentiator -8 and D2 potentiator -18.
For CCCNC(=O)c1ccccc1NC(=O)c1cccc(-n2cnnn2)c1 the results were gsp antag -8%, ClpP mod -28%, gsp ag -4%, TRPV1 potentiator 8 and D2 potentiator -1.
`O=C(COC(=O)c1ccc(Br)o1)Nc1nc2ccccc2s1` gave Sfp inh 14%, gsp antag -14%, ClpP mod -6.1%, Menin-MLL FL inh 1.7, gsp ag -13%, TRPV1 potentiator 15 and D2 potentiator -1.
`COc1ccc(C(C)=O)cc1COC(=O)c1ccc2c(c1)OCO2` gave Sfp inh -7%, gsp antag 13%, ClpP mod -2.7%, Menin-MLL FL inh 2.4, gsp ag 6%, TRPV1 potentiator -8 and D2 potentiator 3.
O=Cc1c(NCc2cccc(F)c2)c2ccccc2[nH]c1=O was read as Sfp inh 19%, gsp antag -5%, ClpP mod 0.4%, Menin-MLL FL inh -4.5, gsp ag 7%[15.4 µM], TRPV1 potentiator -21 and D2 potentiator -9.
Screening Cc1ccc(N(C(=O)CNC(=O)c2ccco2)C(C(=O)NC2CCCCC2)c2ccncc2)c(C)c1 (stereo not given) returned Sfp inh 7%, gsp antag 0%, gsp ag 0%, TRPV1 potentiator 7 and D2 potentiator -1.
`Cc1cccc(C)c1OCc1cc(C(=O)N(C)CCc2ccccn2)no1` gave Sfp inh 5%, gsp antag 6%, ClpP mod 1.6%, gsp ag -13%, TRPV1 potentiator 18 and D2 potentiator -7.
For N#Cc1ccccc1COC(=O)c1cccnc1N the results were Sfp inh -2%, gsp antag 14%, ClpP mod 0.9%, Menin-MLL FL inh -4.5, gsp ag 0%[15.4 µM], TRPV1 potentiator 1 and D2 potentiator -1.
Screening COc1ccc(-n2c(=O)c3ccccc3n(CC(=O)NC3CCCCC3)c2=O)cc1 returned Sfp inh -17%, gsp antag 4%, ClpP mod -2.6%, Menin-MLL FL inh 2.5, gsp ag 17%, TRPV1 potentiator 3 and D2 potentiator 12.

Screening results deposited in PubChem BioAssay by National Center for Advancing Translational Sciences (NCATS).

This is a random part of the collection; about 5.1% have a hit in one of these screens.
